UCH37 inh = inhibitors of human deubiquitinating enzyme UCH37; Q9Y5K5; purified proteasome/UCH37, Ub-AMC cleavage fluorescence; inhibition, % (test concentration not listed); 330,000 compounds, 0.33% hits;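 active = mean of two replicates above 20%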;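 also: 0% = compound-free wells with enzyme and 100% = wells lacking proteasome; stock transfer was 100 nL into about 20 µL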
Target sequence (Q9Y5K5 whole entry, looked up): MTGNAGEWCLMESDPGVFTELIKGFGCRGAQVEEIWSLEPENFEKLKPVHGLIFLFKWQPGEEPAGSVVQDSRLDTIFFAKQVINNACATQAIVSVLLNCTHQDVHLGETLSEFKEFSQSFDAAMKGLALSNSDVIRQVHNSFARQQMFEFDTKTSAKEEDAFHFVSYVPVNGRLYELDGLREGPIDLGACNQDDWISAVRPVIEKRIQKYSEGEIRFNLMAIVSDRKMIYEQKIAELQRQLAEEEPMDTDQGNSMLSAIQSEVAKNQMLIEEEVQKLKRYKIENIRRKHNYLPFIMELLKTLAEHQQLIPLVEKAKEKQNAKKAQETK
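Reagent: Ub-AMC substrate; assay system: Proteasome-associated human UCH37 deubiquitinase; controls: no-proteasome and no-compound wells; read-out: % inhibition of Ub-AMC cleavage fluorescence; timing: 30 min preincubation with enzyme, 25 min cleavage at room temperature; signal: AMC fluorescence from Ub-AMC cleavage, excitation 355 nm, emission 460 nm; buffer or medium: Tris-HCl pH 7.4 plus ovalbumin, ATP-MgCl2, DTT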
FGF22 binding = FGF22 (human) thermal shift binding; Q9HCT0; 340,000 compounds, 1.5% hits; AID 651658; calls only at 9.99 µM; recombinant FGF22 thermal shift, SYPRO orange fluorescence; percent of sucrose octasulfate shift, DMSO zero;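 active = melting point raised past a set limit in the mean and every replicate; inconclusive = no clear call; three in four hits are not shown here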
Target sequence (Q9HCT0 whole entry, looked up): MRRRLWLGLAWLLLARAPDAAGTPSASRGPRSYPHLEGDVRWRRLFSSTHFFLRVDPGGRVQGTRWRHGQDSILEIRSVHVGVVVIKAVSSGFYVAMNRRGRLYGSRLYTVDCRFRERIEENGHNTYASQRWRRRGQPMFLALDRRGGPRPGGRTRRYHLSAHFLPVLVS
ALR inh = human ALR oxidase inhibition via reduced H2O2 | AID 485317 | P55789 | 290,000 compounds, 3.8% hits | inhibition, % (concentration not given with the values) | purified ALR, DTT oxidation, H2O2 HRP-luminol luminescence;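 active = mean and each replicate at 75% or more; inconclusive = only one of the two met; inactive = neither met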;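 also: stock transfer was 7.5 nL into about 7.5 µL; 0% = neutral wells and 100% = wells with inactivated enzyme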
HNF4A DNA FP = change in binding of human HNF4 alpha to DNA. activity change, % at 10 µM. AID 1224865. 360,000 compounds, 0.3% hits. HNF4a-FITC DNA binding, fluorescence polarization, 1 h; in the data active = activity change above about 30%, passing the limit was not always enough;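 also: controls were the assay level and a saturating level of protein; the project sought stronger binding though the title names inhibitors; some compounds called inactive have numbers as strong as hits; positive values seem to mean higher polarization but the record does not say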
Target sequence (P41235 whole entry, looked up): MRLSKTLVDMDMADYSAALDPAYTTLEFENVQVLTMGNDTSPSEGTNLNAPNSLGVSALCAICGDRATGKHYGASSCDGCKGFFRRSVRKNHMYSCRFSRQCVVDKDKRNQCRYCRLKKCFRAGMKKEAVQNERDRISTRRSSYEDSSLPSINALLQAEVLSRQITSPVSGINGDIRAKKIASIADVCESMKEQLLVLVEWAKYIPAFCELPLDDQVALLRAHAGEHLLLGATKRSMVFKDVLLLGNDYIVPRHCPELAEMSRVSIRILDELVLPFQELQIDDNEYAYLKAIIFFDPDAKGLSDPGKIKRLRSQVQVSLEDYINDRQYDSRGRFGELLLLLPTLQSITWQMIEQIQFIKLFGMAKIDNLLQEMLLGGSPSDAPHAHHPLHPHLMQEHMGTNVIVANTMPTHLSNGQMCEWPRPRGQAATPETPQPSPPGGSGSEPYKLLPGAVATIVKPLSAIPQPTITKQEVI
Ecoli rRNA inh = inhibitors of bacterial rRNA selective over humanized ribosomes; 350,000 compounds, 1.6% hits; GFP signal change (wild-type ribosome), % (concentration not given with the values); AID 720706; E. coli WT GFP vs humanized-ribosome RFP mutants, fluorescence, 24 h; active compounds read low; DMSO median 0, no signal -100;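 active = significant combined selectivity score with lowered wild-type GFP, culture density cut under 30%, mutant RFP and density less affected; inactive = any of these conditions unmet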; also: one replicate is shown; some compounds called inactive have numbers as strong as hits
Ecoli growth = inhibitors of Escherichia coli growth; OD600, 23 h; active compounds read low; OD600 absorbance (test concentration not listed); 330,000 compounds, 0.21% hits;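 active = OD600 absorbance below the run mean of sample wells minus 3.6 SD, in any replicate, cut at about 0.56 in these data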;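 also: stock transfer was 300 nL into about 60 µL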
Beta2AR agonist = activates human beta-2 adrenergic receptor causing internalization; AID 504454; 340,000 compounds, 0.43% hits; response, % (no concentration beside the values); Am2.2-beta2AR cells, FAP receptor internalization, flow cytometry; reference of the scale not given here; P07550;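 active = response above a set limit, near 3 SD of response in nonfluorescent compounds, cut at about 42% in these data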;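 also: stock transfer was 100 nL into about 11 µL; a reference agonist was the positive control; negative values mostly stem from fluorescent compounds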
Ecoli rRNA inh OD600 = second read-out of Ecoli rRNA inh, no call of its own (marks repeat the call); OD600 change, %; measured here: OD600 growth;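 optical density of the mix in the first replicate; 0 = DMSO median and -100 = no signal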
Ecoli rRNA inh RFP = second read-out of Ecoli rRNA inh, no call of its own (marks repeat the call); RFP signal change, %; measured here: RFP humanized mutant strains;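 first replicate; 0 = DMSO median and -100 = no signal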
Starred values were filed as active, the others as inactive; i = inactive; u = inconclusive; x = not tested or not shown. Some of the compounds tested (hit frequency here may not be typical).

entry	Molecule	UCH37 inh	FGF22 binding	ALR inh	HNF4A DNA FP	Ecoli rRNA inh	Ecoli rRNA inh OD600	Ecoli rRNA inh RFP	Ecoli growth	Beta2AR agonist
1	Cc1cccc(NC(=O)CN(CC2CCCO2)C(=O)c2ccc(S(C)(=O)=O)cc2)c1C (configuration not stated)	-0.4	i	x	1.5	4	9	-2.4	0.73	-2
2	COc1ccc(-c2nc(NC(=O)c3n[nH]c(=O)c4ccccc34)sc2C)cc1	3.2	i	-3	8.1	4	4	-2.2	0.67	3
3	COc1cc2c(=O)n(Cc3ccco3)c(=O)n(CC(=O)c3cccc(Br)c3)c2cc1OC	0.7	x	-5	x	x	x	x	0.77	x
4	CCOC(=O)CN1CCC(C2(c3cc4ccccc4[nH]3)OCCO2)CC1	x	i	x	2.0	6	-7	-1.9	x	x
5	Cc1cc(NC(=O)C(C)SCC(=O)Nc2ccc(SC(F)F)cc2)no1 (configuration not stated)	2.9	i	5	4.5	1	-9	4.2	0.7	8
6	CC(=O)Nc1cccc(NC(=O)c2ccco2)c1	-1.3	x	-15	-1.8	x	x	x	0.74	-3
7	CCOC(=O)NC1CCS(=O)(=O)C1 (configuration not stated)	1.6	x	-1	8.1	x	x	x	0.68	-2
8	COC(=O)c1c(NC(=O)c2ccco2)sc2c1CC(C)(C)NC2(C)C	-5.7	i	2	-3.9	-14	-4	-3.5	0.74	-15
9	N/C(=N\OC(=O)c1cc([N+](=O)[O-])ccc1Cl)c1cccnc1	x	i	u	-2.8	9	6	0.2	x	-7
10	CCN(CC)CCN1C(=O)C(=O)/C(=C(/O)c2ccncc2)C1c1ccccc1F (configuration not stated)	9.6	x	8	2.1	x	x	x	0.7	-3

In the list so far, these contain four or more nitrogen atoms.
entry	Molecule	UCH37 inh	FGF22 binding	ALR inh	HNF4A DNA FP	Ecoli rRNA inh	Ecoli rRNA inh OD600	Ecoli rRNA inh RFP	Ecoli growth	Beta2AR agonist
2	COc1ccc(-c2nc(NC(=O)c3n[nH]c(=O)c4ccccc34)sc2C)cc1	3.2	i	-3	8.1	4	4	-2.2	0.67	3
9	N/C(=N\OC(=O)c1cc([N+](=O)[O-])ccc1Cl)c1cccnc1	x	i	u	-2.8	9	6	0.2	x	-7

(continued)
entry	Molecule	UCH37 inh	FGF22 binding	ALR inh	HNF4A DNA FP	Ecoli rRNA inh	Ecoli rRNA inh OD600	Ecoli rRNA inh RFP	Ecoli growth	Beta2AR agonist
11	CC1(C)Cc2c(sc3ncnc(N)c23)CO1	0.3	x	-7	-3.5	x	x	x	0.66	-5
12	O=C(N/N=C/c1ccccc1)c1ccc(OCc2ccccc2)cc1	x	i	-7	2.3	7	6	0.7	x	0
13	COC(=O)c1cc(CSc2nc3ccccc3[nH]2)oc1C	4.4	x	x	0.9	x	x	x	0.72	0
14	O=c1[nH][nH]c2c(N=Cc3ccccc3O)ccc(F)c12	14	x	x	-49	4	-7	-0.7	0.71	1
15	CCOC(=O)C1CCN(c2ccccc2CN2CCN(c3ccccc3OCC)CC2)CC1	3.8	x	0	-2.2	1	-10	2.2	0.66	9
16	COc1ccc(-c2noc(CNC(=O)C(C)Oc3ccccc3)n2)cc1 (configuration not stated)	3.3	i	-2	0.1	-6	-7	1.7	0.66	2
17	O=C(Cn1nc2n(c1=O)-c1ccccc1SC2)N/N=C/c1cccnc1	x	i	4	4.8	-2	-5	-3.2	x	3
18	Cc1cccc(CSc2nnc(CCCCCNC(=O)OC(C)(C)C)o2)c1	5.1	i	-25	-1.6	2	-8	0.0	0.65	-1
19	CC(CCN1C(Nc2ccccc2)=NC[C@@H]1C)c1ccccc1 (some centres not stated)	3.8	i	4	-3.4	3	9	4.7	x	1
20	CC(C)Oc1cccc(NC(=O)c2cnccc2C(F)(F)F)c1	3.7	i	-20	-0.3	9	10	0.5	0.66	1
21	Cc1ccccc1N1CCN(C(=O)c2ccccc2NC(=O)C2CC=CCC2C(=O)O)CC1 (configuration not stated)	3.7	x	x	-1.3	x	x	x	0.78	2
22	O=C1CSC(c2ccco2)N1 (configuration not stated)	4.6	x	-34	2.9	x	x	x	0.77	10
23	CC(C)CC(N)c1csc(Nc2ccc(C(=O)NCCCO)cn2)n1 (configuration not stated)	x	i	x	5.7	0	9	-0.4	x	x
24	Cc1ccc(S(=O)(=O)N(C)C)cc1NC(=O)C(C)OC(=O)c1ccc2ccccc2n1 (configuration not stated)	0.6	i	-1	0.2	6	2	0.7	0.64	-3
25	COCCNc1nc2nonc2nc1N(C)Cc1ccc(C)cc1	6.3	i	0	-5.6	-2	1	-1.0	0.67	-1
26	CC(C)c1ccc(NC(=O)C2CCCCN2S(=O)(=O)c2ccccc2)cc1 (configuration not stated)	1.1	i	x	-3.0	-13	-18	-5.4	0.66	5
27	COC(=O)c1ccc(CSc2nnc(C)s2)cc1	3.8	x	-5	0.1	x	x	x	0.74	2
28	CC12CN3CC(C)(CN(C1)C3c1ccc(Br)cc1O)C2 (configuration not stated)	0.9	x	99*	0.4	x	x	x	0.68	4
29	CC(=O)Nc1ccc(S(=O)(=O)NC(C)c2ccncc2)cc1 (configuration not stated)	-0.1	i	-5	-1.8	x	x	x	0.72	-10
30	CN(C(=O)c1ccc(NC(=O)Cc2ccc(NC(=O)C3CCN(C(=O)C4CC4)CC3)cc2)cc1)C1CCCC1	-1.0	i	x	-1.2	7	-1	-0.9	0.65	7
31	CCOC(=O)[C@H]1[C@H]2COc3ccc(OC)cc3[C@H]2N2C(=O)CN(Cc3ccccc3)C(=O)[C@@]12C	x	i	x	2.3	1	-5	1.1	x	9
32	COC(=O)Nc1ncc(CN2C(=O)c3ccccc3C2=O)s1	0.1	x	-14	-2.5	x	x	x	0.72	-12
33	COc1ccc(C(=O)NCCCN2CCOCC2)cc1S(=O)(=O)N1CCCc2ccccc21	-1.3	i	1	-5.0	-1	-2	4.5	0.69	-6
34	Cc1cccc(CNC(=O)Cn2ccc3cc(S(=O)(=O)N4CCCCCC4)ccc32)c1	3.7	i	-7	0.3	-1	3	0.9	0.72	-2
35	CCOC(=O)C(=CNc1ccc(C(F)(F)F)cc1)C(=O)OCC	1.6	i	29	2.3	-23*	-16*	-4.0*	0.68	-4
36	O=C(C1=NN(c2ccccc2)C(=O)CC1)N1CCc2ccccc2C1	1.4	i	0	3.1	3	2	0.9	0.66	5
37	O=C(NCc1ccccc1)C1=C[C@@H](c2coc3ccccc3c2=O)C[C@@H](OCCCCO)O1	1.2	i	-12	3.4	-10	-7	2.4	x	-3
38	C=CCc1cccc(/C=N/NC(=O)C(C)Nc2cccc(C)c2)c1O (configuration not stated)	x	i	-10	4.4	-2	-3	-0.8	x	8
39	CCCCN(C(=O)CSc1cc(C)c2ccc(OC)cc2n1)c1c(N)n(Cc2ccccc2)c(=O)[nH]c1=O	3.6	i	4	-0.9	-6	-8	13	0.71	0
40	Nc1cccc(NC(=O)c2ccco2)c1	-1.8	i	99*	2.2	16	2	3.0	0.68	-6
41	CN(c1ccc(Cl)cc1)S(=O)(=O)c1nnc(NC(=O)C(C)(C)C)s1	-0.6	i	-7	0.0	-9	-2	0.5	0.66	-1
42	CC(C)CCNC(=O)C1CCCN1C(=O)NC1CCCCC1 (configuration not stated)	2.0	x	-1	0.3	x	x	x	0.74	-1
43	O=C(COC(=O)CCc1ccccc1)NCc1ccc2c(c1)OCO2	1.9	i	-1	1.4	8	2	-0.1	0.72	1
44	O=c1cc(-c2ccccc2)nc(N2CCN(Cc3ccc4c(c3)OCO4)CC2)[nH]1	5.1	x	x	-0.2	x	x	x	0.75	13
45	COC(=O)Cn1c(=O)c2c(nc3n2CC(C)CN3c2ccc(C)c(C)c2)n(C)c1=O (configuration not stated)	5.6	i	-7	1.4	10	1	-7.1	0.71	-11
46	CCOC(=O)CN1C(=O)N[C@@H](CCc2ccccc2)[C@H](C(C)=O)[C@H]1C	-1.3	i	-10	-3.6	8	5	-3.3	x	-7
47	O=C(CC[C@H]1O[C@@H](n2cnc3c(NC(=O)c4ccccc4)ncnc32)[C@H](O)[C@@H]1O)NCc1ccc2c(c1)OCO2	x	i	x	0.8	10	-8	1.8	x	x
48	CC1CCN(C2CC(=O)N(c3ccccc3)C2=O)CC1 (configuration not stated)	-0.5	i	-18	-3.1	9	13	0.4	0.66	1
49	Cc1ccc(NC(=O)CN(C)S(=O)(=O)c2cnc[nH]2)c(C)c1	1.1	i	0	-0.1	6	8	1.6	0.68	6
50	OCC1(CCOc2ccccc2)CCN(CC2=Cc3cc(Cl)ccc3OC2)CC1	2.1	i	4	-1.6	-53	-78	-14	0.67	4
51	O=C(Nc1ccccc1)C1CC(=O)N(c2ccc3c4c(cccc24)CC3)C1 (configuration not stated)	1.9	x	-1	-1.1	x	x	x	0.65	5
52	Cn1cnc2c1c(=O)[nH]c(=O)n2Cc1ccccc1	-0.2	i	-7	1.6	7	7	-0.5	0.67	1
53	Cc1ccc(S(=O)(=O)N/N=C(\c2ccccc2)c2cccnc2)cc1	x	i	20	1.4	1	-7	-4.1	x	-7
54	CC(=O)c1ccc2c(c1)OCCOCCOCCOCCOCCO2	6.5	i	-2	-2.5	15	11	5.8	0.66	-1
55	O=C(CCCOc1ccc(Cl)cc1Cl)N/N=C/c1cccc([N+](=O)[O-])c1	x	i	-3	-5.8	13	10	3.0	x	-19
56	O=C(CCCCCN1C(=O)c2cccc3cccc(c23)C1=O)NCCO	-142	i	-9	-0.3	-15	-25	-8.5	0.7	0
57	CCc1noc(C)c1C(=O)Nc1ccccc1C(C)(C)C	0.9	i	2	0.5	-10	-10	1.3	0.69	-3
58	CC1CCc2c(sc3nc(CN4CCOCC4)nc(Sc4ccccc4)c23)C1 (configuration not stated)	-2.3	x	98*	0.7	x	x	x	0.69	-9
59	O=C(C1CCN(c2nnc(-n3cccc3)s2)CC1)N1CCN(c2cccc(C(F)(F)F)c2)CC1	1.9	x	15	-4.9	x	x	x	0.73	-3
60	CCC(C)n1c(=O)c2sccc2n2c(CCCC(=O)N3CCC(C(N)=O)CC3)nnc12 (configuration not stated)	-0.1	i	-2	-0.6	3	9	-4.0	0.72	-5

(list continues)
entry	Molecule	UCH37 inh	FGF22 binding	ALR inh	HNF4A DNA FP	Ecoli rRNA inh	Ecoli rRNA inh OD600	Ecoli rRNA inh RFP	Ecoli growth	Beta2AR agonist
61	COc1ccc(-c2cc(C)no2)cc1S(=O)(=O)N1CCN(c2ccc([N+](=O)[O-])cc2)CC1	6.5	i	0	-0.3	7	5	-1.2	0.71	-13
62	Cn1ncc(Cl)c1C(=O)Nc1ccc2c(c1)CCC2	0.2	x	-3	-0.2	-24	-27	-2.1	0.67	-5
63	COc1nc(-c2ccccc2)cc(C(F)(F)F)n1	2.6	i	-4	-0.6	x	x	x	0.72	-5
64	CCN(CC)C(=O)CSc1nnc(-c2cnccn2)n1-c1ccc(C)cc1	2.1	x	-2	-3.9	x	x	x	0.71	-8
65	O=C(Nc1ccccc1)c1c(F)cccc1F	-0.5	i	x	1.1	-1	3	-2.1	0.66	-7
66	C=CCOC(=O)/C(=C/c1ccco1)NC(=O)/C=C/c1ccccc1	5.1	x	12	3.6	x	x	x	0.8	-5
67	CC(=O)c1c(C)[nH]c(C(=O)OCc2ccc([N+](=O)[O-])cc2)c1C	0.9	i	2	-1.5	10	12	-1.5	0.68	-4
68	CC(C)(C)n1nc(C2CC2)cc1NC(=O)Nc1ccc(Cl)cc1	x	i	-2	-2.0	-8	-5	-12	x	3
69	Cc1cc(=O)oc2ccc(OCC(=O)O)cc12	-77	x	0	-5.1	x	x	x	0.69	1

Screens from PubChem.
